# High-throughput results from PubChem BioAssay.
# Vif TR-FRET = HIV-1 Vif–A3G interaction blockers – biochemical, TR-FRET, GST-Vif 1-94, biotin-A3G peptide, dose response retest, primary screen (AID 1117319); 260,000 compounds, 0.57% hits; one-dose inhibition, %; IC50 in µM for titrated hits; TR-FRET GST-Vif / biotin-A3G peptide binding; higher % means a stronger effect; test concentration not given here; strong numbers were not always called active;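 active means above the screen mean plus three standard deviations and confirmed in dose response; inconclusive means results disagree or hit not tested in dose response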;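 further: Vif residues 1-94 fused to GST binding biotinylated APOBEC3G peptide 110-148; 0% = full assay without inhibitor and 100% = GST in place of GST-Vif; retest series ran down from 100 µM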
# E coli growth = inhibitors of Escherichia coli growth. OD600, 23 h; hits give low values. OD600 absorbance (no concentration beside the values). 330,000 compounds, 0.21% hits. AID 1053175;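 active means OD600 absorbance below the run mean of sample wells minus 3.6 SD, in any replicate, cut at about 0.56 in these data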;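 further: stock transfer was 300 nL into about 60 µL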
# UCH37 inh = human UCH37 deubiquitinating enzyme inhibition; purified proteasome/UCH37, Ub-AMC cleavage fluorescence; inhibition, % (test concentration not listed); 330,000 compounds, 0.33% hits; AID 588478;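 active means mean of two replicates above 20%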;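 further: 0% = compound-free wells with enzyme and 100% = wells lacking proteasome; stock transfer was 100 nL into about 20 µL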
# Target sequence (Q9Y5K5 whole entry, looked up): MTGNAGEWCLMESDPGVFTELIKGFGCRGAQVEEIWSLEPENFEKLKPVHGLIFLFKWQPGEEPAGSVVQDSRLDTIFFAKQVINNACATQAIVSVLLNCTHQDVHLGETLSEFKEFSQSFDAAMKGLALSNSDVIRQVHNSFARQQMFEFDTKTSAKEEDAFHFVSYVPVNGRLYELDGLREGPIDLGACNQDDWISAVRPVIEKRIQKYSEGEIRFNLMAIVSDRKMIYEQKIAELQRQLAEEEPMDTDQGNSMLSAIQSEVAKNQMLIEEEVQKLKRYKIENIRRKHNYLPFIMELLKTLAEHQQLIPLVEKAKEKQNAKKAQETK
#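 Material: human UCH37 enzyme supplied as purified proteasome complex. Measure: % inhibition of Ub-AMC cleavage fluorescence. Medium: pH 7.4 Tris-HCl (50 mM) with ovalbumin, ATP-MgCl2, DTT. Times: 30 min preincubation with enzyme, 25 min cleavage at room temperature. Detection: AMC fluorescence intensity at 355/460 nm.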
# AF4-AF9 inh = MLL-AF4/AF9 protein interaction inhibition | AlphaScreen, biotin-AF4 peptide binding to FLAG-AF9 | 350,000 compounds, 0.47% hits | inhibition, % at 10 µM | P42568;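 active means every replicate reaching a set inhibition limit, whatever the replicate mean, cut at about 25% in these data; inconclusive means mean inhibition reaches that limit but some replicates miss it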;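 further: 0% = plate neutral control median and 100% = total signal loss; the record names both 10 and 1 µM as test concentration; the first replicate is given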
# Target sequence (P42568 whole entry, looked up): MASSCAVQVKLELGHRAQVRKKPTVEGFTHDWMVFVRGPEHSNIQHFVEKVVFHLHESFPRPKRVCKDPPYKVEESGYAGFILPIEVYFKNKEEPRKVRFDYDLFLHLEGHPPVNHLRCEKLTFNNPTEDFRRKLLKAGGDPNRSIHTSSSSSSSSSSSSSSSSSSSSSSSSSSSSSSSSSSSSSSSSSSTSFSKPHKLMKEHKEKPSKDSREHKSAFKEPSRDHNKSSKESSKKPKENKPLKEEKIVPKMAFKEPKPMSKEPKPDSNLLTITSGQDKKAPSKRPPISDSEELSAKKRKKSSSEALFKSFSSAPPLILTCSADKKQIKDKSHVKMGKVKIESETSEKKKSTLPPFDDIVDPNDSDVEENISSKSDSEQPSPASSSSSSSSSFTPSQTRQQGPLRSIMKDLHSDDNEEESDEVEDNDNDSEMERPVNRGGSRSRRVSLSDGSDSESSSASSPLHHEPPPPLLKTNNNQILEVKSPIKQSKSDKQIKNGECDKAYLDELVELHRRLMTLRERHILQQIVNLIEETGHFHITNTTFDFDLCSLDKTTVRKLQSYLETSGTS
# RanGTP-Impb inh = inhibitors of RanGTP-importin-beta interaction, primary screen, biochemical, FRET, CFP-Ran, YFP-importin-beta, homogeneous. cell-free CFP-Ran/YFP-importin-beta FRET ratio. inhibition, % (concentration not given with the values). 300,000 compounds, 1.1% hits. AID 2216;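 active means most replicates above 15%; inconclusive means exactly half above 15%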;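 further: 0% = DMSO wells and 100% = Ran loaded with GDP instead of GTP; wells of about 40 µL received 100 nL stock; the first replicate is given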
# FGF22 binding = binders of recombinant human FGF22 by thermal shift. Q9HCT0. SYPRO orange fluorescence; percent of sucrose octasulfate shift, DMSO zero. calls only at 9.99 µM. 340,000 compounds, 1.5% hits;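 active means melting point raised past a set limit in the mean and every replicate; inconclusive means no clear call; three in four hits are not shown here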
# Target sequence (Q9HCT0 whole entry, looked up): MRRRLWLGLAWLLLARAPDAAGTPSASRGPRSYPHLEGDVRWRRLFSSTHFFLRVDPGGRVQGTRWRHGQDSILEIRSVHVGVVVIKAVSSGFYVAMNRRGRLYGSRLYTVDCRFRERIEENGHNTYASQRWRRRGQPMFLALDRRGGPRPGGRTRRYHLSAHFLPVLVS
# HNF4A DNA FP = change in binding of human HNF4 alpha to DNA. P41235. HNF4a-FITC DNA binding, fluorescence polarization, 1 h. activity change, % at 10 µM. 360,000 compounds, 0.3% hits. AID 1224865; in the data active means activity change above about 30%, passing the limit was not always enough;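 further: controls were the assay level and a saturating level of protein; the project sought stronger binding though the title names inhibitors; some compounds called inactive have numbers as strong as hits; positive values seem to mean higher polarization but the record does not say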
# Numbers without * were called inactive; i = inactive; ? = inconclusive; . = no result given; & = joins results of further samples. A portion of the library; count on the stated rates, not on these rows.
SMILES,Vif TR-FRET,E coli growth,UCH37 inh,AF4-AF9 inh,RanGTP-Impb inh,FGF22 binding,HNF4A DNA FP
COc1cc(CNc2ccc(N3CCOCC3)cc2)ccc1OCC(=O)NC(C)(C)C,6%,0.69,-10,-10,3.8,i,2.5
CCOc1ccccc1NC(=O)C1CCCN(C(=O)NCc2ccccc2)C1 (centres undefined),-5%,0.71,1.4,.,0.3,.,-0.2
COc1cccc(OC)c1C(=O)NC(=S)NNC(=O)[C@H]1C[C@@H]1c1ccccc1,19%,0.62,1.9,0.4,6.9,i,1.6
CCOc1ccc(OCCSc2nc3ccccc3n2CC(=O)O)cc1,.,0.68,6.4,6.7,2.9,i,0.8
COc1ccccc1OCC(=O)N/N=C1/SCC(=O)N1Cc1ccccc1,2%,.,.,.,-1.6,.,-0.7
CCc1ccccc1NC(=O)C1CCCN1C(=O)Nc1ccc(C)cc1 (centres undefined),12%,0.69,-0.6,-0.3,-0.8,i,-1.7
Nc1nc(N)nc(-c2ccccc2O)n1,6%,0.71,1.3,.,-0.6,.,-0.8
Cc1ccc(C2=NN(C(=O)CCC(=O)O)C(c3cccs3)C2)cc1 (centres undefined),3%,0.71,0.8,-7.4,-2.4,i,0.6
COc1ccc(Cc2nnc(-c3ccc(F)cc3)o2)cc1OC,-1%,0.67,2.4,0.9,2.4,i,4.2
COc1ccc(NS(=O)(=O)c2ccc(OCC(=O)N3CCOCC3)cc2)cc1,-3%,0.62,-0.3,.,-0.7,.,0.6
Cc1ccc(S(=O)(=O)N2CCOCC2)cc1NC(=O)C1CC(=O)N(c2ccc3c(c2)OCCO3)C1 (centres undefined),-1%,0.67,-2.2,1.0,.,i,0.6
COc1ccc2c(c1)c1nc3ccccc3nc1n2CCn1c(=O)oc2ccccc21,0%,0.68,7.5,.,-7.0,.,2.9
[O-][n+]1cccc2cccc(O)c21,-10%,0.68,3.8,-5.0,.,i,-2.7
Cc1ccc(CNC(=O)c2ccc3c(c2)NC(=O)CS3)cc1,.,0.71,1.2,-0.3,3.7,i,2.3
CCC(=NCCN1CCNCC1)C1=C(O)CC(C)(C)CC1=O,3%,0.67,1.6,-31,4.7,i,3.6
Cc1nn(C)cc1C(N)=O,11%,0.8,-0.1,.,0.1,.,-0.9
O=C1NC(c2cccs2)Nc2ccccc21 (centres undefined),2%,0.68,-111,.,1.2,.,-2.4
Cc1ccc(C(=O)NCCNC(=O)c2cccnc2)cc1,.,0.7,4.1,-2.2,4.6,i,-0.5
CCC(C)(O)c1[nH]c2ccc(C(F)(F)F)cc2c1C (centres undefined),.,.,.,-0.2,4.8,i,4.3
O=C(Nc1nnc(-c2ccncc2)s1)C1CCCO1 (centres undefined),5%,0.66,-103,.,2.2,.,-2.8
Cc1n[nH]c(=O)c2c(NC(=O)CSc3nnnn3-c3ccccc3)oc(C)c12,1%,0.69,2.7,5.0,-0.7,i,1.0
COc1ccccc1/C=C/C=N/NC(=O)CCn1nnc2ccccc21,.,.,.,2.7,6.2,i,2.3
N#Cc1nc2ccccc2n1OCc1ccccc1,-4%,.,.,-0.9,.,i,-2.0
CC(C)C(OC(=O)c1cccs1)C(=O)NCc1ccco1 (centres undefined),9%,0.67,2.6,.,0.6,.,2.5
CCc1ccc(-c2cc(C)no2)cc1S(=O)(=O)NCc1ccccc1OC,.,0.7,-1.5,-2.6,4.8,i,0.9
C/C(=N\NC(=O)c1c(C)nc2ccccn12)c1ccc(O)cc1O,6%,.,.,-2.5,21*,i,4.9
Cc1cccc(-c2ocnc2C(=O)N2CCN(C(=O)c3cccs3)CC2)c1,.,0.71,5.6,1.4,5.3,i,-0.7
CC(=O)Nc1ccc(N(C)S(C)(=O)=O)cc1,-7%,0.67,2.7,.,6.5,.,3.8
Cc1noc(COc2ccccc2OCC(O)CNC(C)(C)C)n1 (centres undefined),3%,0.72,2.8,.,-0.6,.,-0.2
CN1CCC(N(C)S(=O)(=O)c2ccc(F)cc2F)CC1,.,0.65,-0.3,-2.5,1.6,i,-3.1
COc1cccc(CNC(=O)CC2Sc3ccccc3NC2=O)c1 (centres undefined),-2%,0.73,1.3,0.0,10.0,i,2.9
COC(=O)CSc1nnc(CNC(=O)c2ccc(OC)c(OC)c2)n1C,.,0.71,5.0,-1.5,-1.3,.,2.0
Cc1cccc2c3nc4ccccc4nc3n(CCCN3C(=O)c4ccccc4C3=O)c12,.,0.71,-26,.,1.9,.,-1.7
O=c1c2c(-c3ccccc3)csc2nc2c3ccccc3c(NCCN3CCOCC3)nn12,.,0.62,-355,12,1.7,i,20
CN(C)CCNC(=O)c1cccc(-c2cccc3nncn23)c1,.,.,.,-6.1,.,i,-6.5
S=C(NCCCc1cnc[nH]1)NCCCN(Cc1ccc(Cl)cc1)c1ccc(Br)cn1,.,.,.,?,.,i,-2.1
C[C@H](CO)N1C[C@H](C)[C@@H](CN(C)S(C)(=O)=O)Oc2ccc(NC(=O)CCN3CCOCC3)cc2C1=O,-6%,0.72,-0.7,0.9&-4.2,.,i,1.3
N=c1n(CCCOc2ccc(Br)cc2)c2ccccc2n1CC(N)=O,7%,0.66,3.9,-43,5.3,i,-2.9
Cn1nnnc1SCc1csc(C2C(C#N)=C(N)OC3=C2C(=O)CCC3)c1 (centres undefined),8%,0.74,6.4,-2.9,?,i,4.8
O=c1[nH]c(CN2CCOCC2)nc2cc(Cl)ccc12,.,0.66,0.9,-1.7,2.2,i,1.6
CC(C)c1cc(C(=O)N/N=C/c2ccoc2)cs1,7%,.,.,-0.6,3.6,i,0.5
CC(C)N(C(=O)[C@H]1C[C@H](CC(=O)NCCc2ccccn2)C(=O)N2CCc3c([nH]c4cc(-c5ccco5)ccc34)[C@]12C)C(C)C,.,0.71,-14,4.9,.,i,1.4
O=C(O)c1cccc(NC(=S)NC(=O)c2ccncc2)c1,.,0.69,4.8,-6.4,0.7,i,4.5
CN(NC(=O)c1c(Cl)cccc1Cl)c1cccc(Cl)n1,-12%,0.71,0.2,-1.7,-0.3,i,2.4
Cc1cccc(C)c1NC(=O)CNC(=O)C1CCCC1,20%,0.71,-0.1,-1.7,.,i,1.7
Cc1cccc(NC(=S)NC2CC3CCCC(C2)N3CC(C)C)c1 (centres undefined),-4%,0.71,5.3,.,-1.3,.,-0.3
Cc1ccc(S(=O)(=O)N2CCCCC2)cc1NC(=O)COC(=O)Cc1cccc(C(F)(F)F)c1,3%,0.69,1.0,.,1.2,.,1.1
Cc1ccc(C(=O)OCC(=O)NCCC2=CCCCC2)cc1N,3%,0.72,4.0,-0.6,3.8,i,0.9
CCOC(=O)N1CCN(C(=O)c2ccc3c(=O)n(-c4ccc(F)cc4)c(=S)[nH]c3c2)CC1,3%,0.7,6.1,.,2.3,.,-2.6
Cc1cccc(N(Cc2ccccc2F)S(C)(=O)=O)c1,22%,0.77,-1.5,.,4.5,.,-0.9
O=C(CC12CC3CC(CC(C3)C1)C2)NCCN1CCOCC1,30%,0.71,0.8,.,3.2,.,0.5
Cc1ccc(-c2csc3ncnc(SCC(=O)c4ccc5c(c4)OCCO5)c23)cc1,-38%,0.71,3.0,.,0.7,.,1.4
O=C1CN(C(=O)N[C@@H](Cc2ccccc2)C(=O)N[C@H](C(=O)O)c2ccccc2)c2ccccc2N1,.,0.68,1.4,-15,0.1,i,2.6
CC(=O)c1ccc(N(CC(=O)NC2CCS(=O)(=O)C2)S(=O)(=O)c2ccc(C)cc2)cc1 (centres undefined),-7%,0.72,0.6,1.3,.,i,1.0
CC(=O)N1CCN(c2ccc(Oc3nnnn3-c3ccccc3)cc2)CC1,0%,0.66,1.6,.,1.3,.,2.6
CSc1cccc(NC(=O)c2cc(S(=O)(=O)N3CCc4ccccc43)cn2C)c1,.,0.74,1.0,2.4,?,i,-1.5
CC1=C(O)C(=O)OC1c1c(Cl)cccc1Cl (centres undefined),1%,0.62,1.4,-1.0,5.4,i,4.6
CCc1nc(SCc2ccc(F)cc2)[nH]c(=O)c1C#N,0%,0.7,2.0,.,.,.,-1.8
O=C(NCc1cccnc1)C1CCC(CNS(=O)(=O)c2ccc(Cl)cc2)CC1 (centres undefined),.,0.72,-2.2,-0.5,8.6,i,4.9
CC(C)OP(=O)(OC(C)C)C(NC(=O)c1cccc([N+](=O)[O-])c1)C(N)=O (centres undefined),-2%,0.76,6.6,.,-9.2,.,-2.2
# (more compounds)
SMILES,Vif TR-FRET,E coli growth,UCH37 inh,AF4-AF9 inh,RanGTP-Impb inh,FGF22 binding,HNF4A DNA FP
CCc1ccccc1NC1c2ccccc2C(=O)N1c1cc(C)ccn1 (centres undefined),27%,0.71,3.1,4.0,-4.7,i,-0.8
Cc1noc(C)c1COc1ccc(C(=O)NCC2CCCO2)cc1 (centres undefined),1%,0.75,0.5,.,-3.1,.,-4.7
O=C(NC1CCCCC1)C(c1ccco1)N(Cc1cccs1)C(=O)Cn1nnc2ccccc21 (centres undefined),-12%,0.74,-1.0,.,.,.,4.0
O=C(CC(Nc1ccc(Cl)cc1Cl)C(=O)O)c1ccccc1 (centres undefined),-4%,0.64,3.3,.,0.5,i,0.2
COc1cc(/C=N/n2nnnc2N)cc(Cl)c1OC,.,.,.,-0.6,5.3,i,2.8
CCC(C)(C)NC(=O)C(c1cccc(OC)c1OC)N(CCOC)C(=O)CCC(=O)Nc1cc(C)on1 (centres undefined),.,0.63,1.4,2.6,3.4,i,-2.6
CC(Oc1ccccc1F)C(=O)NC1CCS(=O)(=O)C1 (centres undefined),.,0.67,1.8,0.2,3.1,i,1.3
Cc1cc(NC(=O)COC(=O)c2ccc(S(=O)(=O)N3CCCC3)cc2)no1,-4%,0.71,0.3,0.2,0.8,i,2.8
N=c1c2ccccc2nnn1-c1ccccc1[N+](=O)[O-],-4%,.,.,1.3,.,i,-7.1
N#Cc1c(N)nc(SCC(=O)NC2CCCCC2)c(C#N)c1-c1ccc(Cl)cc1,8%,0.69,-29,.,-2.7,.,2.6
Cc1cc2nc3ccc(N(C)C)cc3nc2cc1N,.,.,.,7.9,-1.3,i,-9.8
COc1ccccc1C(=O)OC(C)CN1CCN(C)CC1 (centres undefined),.,0.68,4.8,-4.9,-1.0,i,2.8

# 6 structures already listed, ordered by SMILES length, ascending:
SMILES,Vif TR-FRET,E coli growth,UCH37 inh,AF4-AF9 inh,RanGTP-Impb inh,FGF22 binding,HNF4A DNA FP
Cc1nn(C)cc1C(N)=O,11%,0.8,-0.1,.,0.1,.,-0.9
O=C(O)c1cccc(NC(=S)NC(=O)c2ccncc2)c1,.,0.69,4.8,-6.4,0.7,i,4.5
CCc1ccc(-c2cc(C)no2)cc1S(=O)(=O)NCc1ccccc1OC,.,0.7,-1.5,-2.6,4.8,i,0.9
COc1ccc(NS(=O)(=O)c2ccc(OCC(=O)N3CCOCC3)cc2)cc1,-3%,0.62,-0.3,.,-0.7,.,0.6
Cc1cc(NC(=O)COC(=O)c2ccc(S(=O)(=O)N3CCCC3)cc2)no1,-4%,0.71,0.3,0.2,0.8,i,2.8
Cc1cccc2c3nc4ccccc4nc3n(CCCN3C(=O)c4ccccc4C3=O)c12,.,0.71,-26,.,1.9,.,-1.7

# The results go on.
SMILES,Vif TR-FRET,E coli growth,UCH37 inh,AF4-AF9 inh,RanGTP-Impb inh,FGF22 binding,HNF4A DNA FP
N#C/C(=C\c1cccnc1)c1ccc(Br)cc1,1%,0.61,2.1,6.0,0.3,i,-2.6
Cc1ccc(CONS(=O)(=O)c2cc(C)ccc2C)cc1,-1%,0.62,2.9,-1.8,.,i,2.2
O=C(NCc1ccccc1)c1ccc(-c2cn[nH]c2)c2ccoc12,.,.,.,-1.0,.,i,-3.2
CCOC(=O)c1ccc(NS(=O)(=O)c2ccc(-c3coc(C)n3)cc2)cc1,2%,0.67,4.1,-11,-1.5,i,1.8
COc1cccc(Oc2ccc(OC)cc2C(=O)O)c1,-7%,0.63,6.6,1.0,2.9,i,3.0
